# Bead autofluor: counter-screen for toxin protease inhibitors: compound fluorescence; compound autofluorescence counterscreen, microsphere flow cytometry; stronger effect = higher value; fluorescence intensity (no concentration beside the values); 360,000 compounds, 3.1% hits; AID 624483;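 active = at least 3 SD above the mean of all compounds, about 16000 in these data; inconclusive = too few beads counted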;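 note: 100 nL of 1 mM stock went into each well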
# Mtb hypoxia rep: PubChem AID 1159583 | 300,000 compounds, 0.1% hits | fluorescence inhibition, % (concentration not given with the values) | M. tuberculosis hypoxia-regulated fluorescent reporter, fluorescence;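 active = 35 to 45% if threefold the growth effect, above 45% if 1.5-fold the growth effect; inactive = the rest, general growth blockers included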;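 note: wells of about 50 µL received 100 nL stock; 0% = vehicle wells and 100% = reference inhibitor wells; whole bacteria with a GFP reporter of the hypoxia response; strong numbers were not always called active; many hits fall short of the cut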
# BJeLR viability: MLPCN primary cell-based screen for lethality selective to Ras in HRASV12 cells; BJeLR (HRASV12) viability, CellTiter-Glo ATP luminescence, 48 h; reference of the scale not given here; inhibition, % (concentration not given with the values); 300,000 compounds, 0.17% hits; AID 1554, 2009;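 active = replicate mean above 50%; inconclusive = above 50% but judged a plate artefact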;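 note: 50 nL library stock added to about 25 µL; numbers are from one replicate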
# Sa ugtP lethal: growth inhibition of ugtP-null S. aureus, primary screen, RN4220 ugtP deletion, OD600 | growth inhibition, % (concentration not given with the values) | 16 h; some inactives read as strong as hits | 330,000 compounds, 0.54% hits | AID 1259309, 2017;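 active = z-score under -3 and OD600 up to 0.15 on both plates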;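 note: plate controls were untreated wells for no effect and antibiotic for full effect; wells of about 80 µL received 100 nL stock; the first replicate is given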
# RN4220 kill: growth inhibition of S. aureus RN4220, primary screen, OD600; 16 h; inhibition, % (concentration not given with the values); 330,000 compounds, 0.33% hits;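 active = z-score of -3 or lower and OD600 up to 0.18 on both plates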;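 note: plate controls were untreated cells for no effect and reference antibiotic for full effect; stock transfer was 100 nL into about 80 µL; one replicate is shown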
# PrP UTR inh: inhibition of PrP 5' UTR reporter expression; cell-based PrP 5' UTR mRNA reporter, plate reader; inhibition, % (concentration not given with the values); 340,000 compounds, 0.35% hits; AID 488862, 2010;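 active = every replicate at 50% or more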;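 note: 0 = median of the neutral control wells; tested in H4 reporter cells; numbers are from one replicate; inactives centre near -14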
# Mtb hypoxia rep growth: further read-out of Mtb hypoxia rep, marked with its call; growth inhibition, %; measured here: M. tuberculosis growth (absorbance);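 0% = vehicle and 100% = reference antibiotic; read after six days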
# * marks the source's active call; other numbers are inactive results; ? = inconclusive; . = no result given.
compound	Bead autofluor	Mtb hypoxia rep	Mtb hypoxia rep growth	BJeLR viability	Sa ugtP lethal	RN4220 kill	PrP UTR inh
COc1ccc(C/C(C)=N/NC(=O)C2COc3ccccc3O2)cc1 (stereo not drawn)	2201	.	.	-8	.	.	-33
Cn1c(=O)c2c(nc(NCCNC(=O)c3ccco3)n2Cc2ccccc2F)n(C)c1=O	5327	5	4	3	3	4.0	-4
O=C(NCC1CC1)Nc1cccc(C(F)(F)F)c1	3500	19	25	-3	14	0.6	.
CC1CCN(C(=O)c2ccc(N3CCOCC3)c([N+](=O)[O-])c2)CC1	6438	-2	6	.	1	0.8	-16
O=C(O)Cc1sc(-c2cccnc2)nc1-c1ccc(Br)cc1	4528	4	-4	4	-2	4.4	-16
CCN(CC)c1ccc(NC(=O)Cn2cc3c(n2)CCC(C)C3)c(C)c1 (stereo not drawn)	5596	.	.	2	8	-0.3	-30
CCOc1ccccc1-n1nnnc1SCc1nc2ccccc2s1	17496*	1	3	4	-4	1.1	-32
C=C1N2CCC(CC2)C1(O)c1ccc(C)c(C)c1 (stereo not drawn)	4318	5	5	-4	1	0.3	-35
CCn1c(NC(=O)c2nn(C)cc2Br)nc2ccccc21	2189	0	8	12	8	4.5	-6
O=C(Cc1ccccc1)Nc1cc([N+](=O)[O-])ccc1N1CCOCC1	4545	3	-11	-1	3	5.0	-14
COc1ccc(C(=O)N/C(=C/c2ccc(Cl)cc2)C(=O)Nc2ccc(C(=O)O)cc2)cc1	4132	11	0	1	10	-0.7	-12
CC(=O)N1CCN(C(=O)c2cc(-c3cccc4ccccc34)nc3ccccc23)CC1	5190	3	5	10	-4	-2.5	-10
COC(=O)c1ccc(-c2ccc(CNCC(O)c3ccccc3)o2)cc1 (stereo not drawn)	10312	4	8	3	-2	4.2	-15
CCN(C(=O)CSc1nnc(-c2ccncc2)o1)c1ccccc1	?	6	5	-2	10	3.7	-3
Cc1ccc(S(=O)(=O)N2CCOCC2)cc1NC(=O)CNCc1ccc(Cl)cc1Cl	?	9	4	.	-2	6.5	3
COc1ccc(N2CCC(CNC(=S)Nc3cccc(OC)c3)C2)cc1 (stereo not drawn)	.	0	2	3	-8	1.1	.
CCN(CC(=O)Nc1ccccc1OC)C(=O)CC1CCCC1	7673	5	8	.	8	7.9	-22
COc1nccnc1NS(=O)(=O)c1ccc(NC(=O)c2ccc(F)cc2)cc1	4129	7	7	11	5	0.3	-31
Cn1cccc1C(=O)NC(=O)COC(=O)c1ccc(O)cc1	4335	3	4	6	11	4.9	4
CCOCCn1c(N2CCN(c3ccc(OC)cc3)CC2)nc2c1c(=O)n(C)c(=O)n2C	2474	0	10	4	6	11	-14
O=C(CC1(O)C(=O)Nc2cc(Cl)cc(Cl)c21)c1ccccc1O (stereo not drawn)	2901	11	11	-3	-6	17	0
O=C(COC(=O)c1nc(Cl)ccc1Cl)NNC(=O)c1cccs1	?	0	8	8	5	1.9	-19
CN(C(=O)c1ccc(NC(=O)C2CC=CCC2C(=O)O)cc1)c1ccccc1 (stereo not drawn)	5029	6	8	6	6	0.4	-22
Cc1ccc2c(c1)C(O)(CC(=O)c1cccnc1)C(=O)N2 (stereo not drawn)	3717	.	.	0	3	-3.6	-10
CCOC(=O)/C=C1\SCC(=O)N1CC(=O)NC(c1ccccc1)c1ccccc1	11173	-9	-8	-11	0	3.6	-9

# New compounds follow:
compound	Bead autofluor	Mtb hypoxia rep	Mtb hypoxia rep growth	BJeLR viability	Sa ugtP lethal	RN4220 kill	PrP UTR inh
CN(C)CCCNC(=O)C(=O)NCC1OCCN1S(=O)(=O)c1cc(F)ccc1F (stereo not drawn)	6675	2	-3	3	4	-1.3	-17
Cc1c(Cl)cccc1NC(=O)Nc1cc(C(C)(C)C)on1	4150	-10	5	0	-26	-7.5	-6
CCn1c(SCC(=O)NC2CCCc3ccccc32)nnc1-c1cccs1 (stereo not drawn)	2723	.	.	-8	11	2.1	-15
Cc1nnc(SCc2cc(=O)[nH]c(=S)[nH]2)s1	3384	-1	5	1	16	8.1	-16
COc1cccc(C2=NN(C(=O)c3ccc(C)o3)C(O)(C(F)(F)F)C2)c1 (stereo not drawn)	3360	4	0	8	-3	14	-2
CCn1nnnc1-c1ccc(OC)c(S(=O)(=O)Nc2ccc(C)c(C)c2)c1	2334	-2	9	-36	4	5.6	-26
CCOc1ccc(NC(=O)c2c(NC(=O)CN3CCCC3)sc3c2CCC3)cc1	6664	6	0	-10	-6	7.2	-15
COc1ccc(-c2cc(C(=O)OCC(=O)NC(C)(C)C)c3ccccc3n2)cc1	4478	3	1	0	6	9.0	-13
Cc1ccccc1C(=O)NN=C1SCC(=O)N1Cc1ccc2c(c1)OCO2	.	8	9	.	9	4.2	.
CCOC(=O)/C(=N\Nc1cc(C(F)(F)F)ccc1Cl)N(CC)CC	20400*	.	.	-8	.	.	-19
O=C(O)CSc1nc(-c2ccccc2)cc(=O)[nH]1	4792	6	1	-9	2	1.9	-19
Oc1ccc(C=Nn2c(COc3ccccc3)n[nH]c2=S)c(O)c1	.	2	8	.	5	6.3	.
Cc1c(NC(=O)CSc2nncc3ccccc23)c(=O)n(-c2ccccc2)n1C	20089*	0	8	5	3	4.0	-7
COc1ccc(C2CC(=O)C=C(NCCC(C)C)C2)cc1 (stereo not drawn)	.	-3	15	-4	-1	12	7
COc1cccc2cc(-c3n[nH]c(=S)n3C)oc12	4136	-11	4	1	13	-1.2	-14
O=C(NCc1ccco1)Nc1cccc([N+](=O)[O-])c1	4092	-10	-8	10	-13	1.2	-31
N#Cc1c(NC(=O)c2ccc(N3CCOCC3)c([N+](=O)[O-])c2)sc2c1CCCC2	7685	3	2	0	3	0.6	-11
COc1cc(S(=O)(=O)N(Cc2cccs2)C2CC2)ccc1-n1cnnn1	7813	12	5	-3	-2	9.8	-12
CCOCCCNc1nc(C(F)(F)F)nc2c1nnn2Cc1ccccc1Cl	3651	1	2	4	-12	-1.2	-11
Cc1cccc(NC(=O)CCNS(=O)(=O)c2cccc3nonc23)c1C	3776	-1	-1	2	3	1.5	-6
COc1ccc(CCNC(=O)CCNS(=O)(=O)c2cccc3nsnc23)cc1OC	6797	7	1	-6	2	1.7	-10
O=C(CCC(=O)NCc1ccccc1)NCc1ccccc1	3556	7	5	-4	3	0.5	-14
COCCn1c(=O)c2c(nc3n2CC(C)CN3CCc2ccccc2)n(C)c1=O (stereo not drawn)	4313	.	.	1	.	.	-15
O=P(Nc1cccc(Cl)c1)(Oc1ccccc1)Oc1ccccc1	3775	-3	10	-1	-2	-7.7	-4
CCOc1ccccc1Nc1nnc(SCc2nnc(-c3cc(OC)c(OC)c(OC)c3)o2)s1	7516	0	2	-5	-17	7.7	-12

# The results go on.
compound	Bead autofluor	Mtb hypoxia rep	Mtb hypoxia rep growth	BJeLR viability	Sa ugtP lethal	RN4220 kill	PrP UTR inh
Cc1cc(OCCCCCn2ccnc2)cc(C)c1Cl	4537	.	.	-1	6	-4.6	-48
CCOC(=O)c1sc(NC(=O)CN2C(=O)C3CC=CCC3C2=O)nc1C (stereo not drawn)	5243	2	-2	.	0	0.1	-25
OC(CN1CCCCC1)CN(c1ccccc1)c1ccccc1 (stereo not drawn)	3653	.	.	-9	-5	-3.5	3
Cc1ccc(-n2nc(C(=O)O)cc2-c2ccc(Cl)cc2)cc1	4430	-3	9	-3	-7	-2.1	-12
CN(C)S(=O)(=O)c1ccc(NS(=O)(=O)/C=C/c2ccccc2)cc1	8479	7	9	2	17	0.3	-28
CC(=O)c1sc(NC(=O)COc2ccc(Cl)cc2Cl)nc1C	4260	-7	2	.	-2	3.1	-52
O=C(/C=C/c1ccc(Cl)cc1)N1CCN(CCN2C(=O)c3cccc4cccc(c34)C2=O)CC1	5147	13	-1	.	-4	3.0	-9
O=C(CSc1nc2[nH]ncc2c(=O)[nH]1)Nc1ccccc1	2590	16	18	-1	4	7.1	-9
COc1ccc(C2CC(=O)C=C(c3ccc(CNC(=O)OC(C)(C)C)cc3)C2)cc1 (stereo not drawn)	.	10	13	.	-10	-1.8	.
N[C@@H](Cc1c[nH]c2ccccc12)c1nnc(SCc2ccccc2F)o1	22370*	7	19	3	-8	9.8	-5
O=C(COC(=O)CCNS(=O)(=O)c1ccccc1)NC(=O)Cc1ccccc1	3470	11	11	.	3	-0.5	-8
CCCCOc1ccc(Cc2cnc(N)nc2N)cc1	.	13	12	4	66	6.5	-8
O=C(NN=C1CCCc2ccccc21)C(O)c1ccccc1 (stereo not drawn)	.	6	6	.	11	6.2	.
COc1ccc(Br)cc1C(=O)Nc1ccc(NC(=O)c2ccco2)cc1	3150	.	.	2	.	.	-14
CC(C)[C@H](NC(=O)c1ccccc1)C(=O)OCC(=O)N1CCCCCC1	2159	15	12	3	5	1.4	-17
Cc1[nH]c(=O)c(C#N)c(C)c1CSc1ncccn1	3468	17	1	16	3	2.5	1
COC(=O)c1cn(NC(=O)c2cccc(F)c2)c(=O)c2ccccc12	6969	1	9	0	3	6.7	-21
CCN1CCN(c2ccc(S(=O)(=O)N3CCOCC3)cc2NC(=O)/C=C/c2ccc(OC)c(OC)c2)CC1	?	.	.	-6	.	.	22
Cc1nn(-c2ccccc2)c(N)c1N=Nc1ccccc1	2614	5	0	16	-22	7.1	-169
CC(C)CN1CCC(=O)N(CCN=[N+]=[N-])CC1	4125	0	1	9	0	0.7	-21
CCC(C)NC(=S)N1CCN(C)CC1 (stereo not drawn)	.	-7	0	-7	5	1.9	.
O=C(CN1C(=O)CSC1=O)c1ccccc1	4441	-1	0	-3	1	2.6	20
CCOC(=O)NN1C(=O)c2ccccc2NC1c1cccnc1 (stereo not drawn)	4669	2	8	0	0	3.4	-18
CCc1cccc2c(C=NNC(=O)c3cccc(S(=O)(=O)Nc4ccccc4Cl)c3)c[nH]c12	.	-4	2	.	-15	8.6	.
O=C(O)/C=C/C(=O)NC1CCS(=O)(=O)C1 (stereo not drawn)	9982	7	-2	6	2	1.4	-47

# Quoted at random: 4 records from the list
compound	Bead autofluor	Mtb hypoxia rep	Mtb hypoxia rep growth	BJeLR viability	Sa ugtP lethal	RN4220 kill	PrP UTR inh
O=C(NN=C1CCCc2ccccc21)C(O)c1ccccc1 (stereo not drawn)	.	6	6	.	11	6.2	.
OC(CN1CCCCC1)CN(c1ccccc1)c1ccccc1 (stereo not drawn)	3653	.	.	-9	-5	-3.5	3
N[C@@H](Cc1c[nH]c2ccccc12)c1nnc(SCc2ccccc2F)o1	22370*	7	19	3	-8	9.8	-5
O=C(COC(=O)CCNS(=O)(=O)c1ccccc1)NC(=O)Cc1ccccc1	3470	11	11	.	3	-0.5	-8

# Remaining list, next part.
compound	Bead autofluor	Mtb hypoxia rep	Mtb hypoxia rep growth	BJeLR viability	Sa ugtP lethal	RN4220 kill	PrP UTR inh
COc1ccc(/C=C/C(=O)O)cc1S(=O)(=O)N1CCc2ccccc2C1	4326	4	3	-1	0	6.6	-18
CSc1cccc(NC(=S)Nc2cc(C)ccc2C)c1	5350	17	7	7	-1	0.5	-26
O=C(O)c1cccc(NC(=O)c2ccccc2NC(=O)c2cccc([N+](=O)[O-])c2)c1	.	5	-1	-7	9	2.2	10
O=C(CSc1nccn1-c1ccc(F)cc1)NCc1ccc(F)cc1	4205	-1	20	6	1	1.8	-6
CCCCC(O)(c1ccccc1)C(CN1CCOCC1)c1ccccc1 (stereo not drawn)	3476	-6	0	6	5	10	-36
CCCCn1c(C(C)NC(=O)CCC)nc2ccccc21 (stereo not drawn)	5781	-2	-1	2	18	15	8
O=C1NC(=O)N(c2ccc(F)cc2)C(=O)/C1=C/c1ccc(N2CCOCC2)cc1	3786	16	2	7	-60	17	-35
CCn1cc(S(=O)(=O)Nc2cccnc2)cn1	5760	11	-1	11	0	1.7	-13
CCCCc1n[nH]c2c1C(=NO)CC(c1ccccc1)C2 (stereo not drawn)	.	6	7	.	-4	10.0	.
Cc1noc(C)c1C(=O)OC(C)C(=O)Nc1ccc(C(N)=O)cc1 (stereo not drawn)	.	4	0	.	4	0.3	-24
COc1cc2ccccc2cc1C(=O)N1CC(C)OC(C)C1 (stereo not drawn)	?	4	9	.	2	1.1	-5
